Screening data as filed in PubChem.
CBX7 inh – CBX7 inhibition, primary AlphaScreen; O95931; AlphaScreen His6-CBX7 / biotin-H3K27me3 peptide binding; hits give low values; normalised signal (fraction of DMSO) (no concentration beside the values); actives 1.1% (n = 66,000); AID 1224903; in the data active = normalised signal below about 0.5;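 note: 100 nL library stock added to about 20 µL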
Target sequence (O95931 whole entry, looked up): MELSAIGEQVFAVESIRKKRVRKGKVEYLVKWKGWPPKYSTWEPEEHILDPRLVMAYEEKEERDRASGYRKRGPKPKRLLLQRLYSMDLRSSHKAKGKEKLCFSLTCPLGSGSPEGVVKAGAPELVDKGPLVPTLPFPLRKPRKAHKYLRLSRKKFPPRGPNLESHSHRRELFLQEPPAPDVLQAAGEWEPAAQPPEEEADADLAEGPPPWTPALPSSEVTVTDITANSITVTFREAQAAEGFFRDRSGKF
CBX7 inh z-score – also measured in CBX7 inh; calls as there; z-score; measured here: z-score of CBX7 signal; some inactives read as strong as hits; reference of the scale not given here;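 same signal on another scale; lower means less binding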
Numbers without * were called inactive. Only part of the results is shown; the hit share may differ from the screen's.

SMILES | CBX7 inh | CBX7 inh z-score
COC(=O)c1c(NC(=O)c2cccc(Br)c2)sc(C)c1C | 1.2 | 2.3
Cc1ccc(C(=O)Nc2c(C)ccc3nsnc23)cc1 | 1.1 | 0.79
CCOC(=O)C1CCCN(c2c(NCCN3CCCC3)c(=O)c2=O)C1 (centres undefined) | 0.97 | -0.69
CCOc1ccc(CNC(=O)CCCc2cn(C)c3ccccc23)cc1OC | 0.87 | -2.3
Cc1ccc(-n2c3c(cc(C(=O)NC4CC(C)(C)NC(C)(C)C4)c2=O)C(=O)CC(C)(C)C3)cc1 | 1.1 | 1.2
Cc1ccc(S(=O)(=O)NC(C)(C)CNC(c2ccccc2)c2ccccc2)cc1 | 0.71 | -1.9
O=C(Nc1ccc(Cl)cc1)c1cnc2ccccc2n1 | 1.1 | 0.47
COc1ccc(CC(=O)N2CC(=O)Nc3ccc(Br)cc3C2c2ccc(F)cc2)cc1 (centres undefined) | 1 | 0.21
NC(=O)C1CCN(C(=O)C2CCCN(c3nnc(-n4cccc4)s3)C2)CC1 (centres undefined) | 1 | 0.26
Cc1ccc2c(c1)c(=O)c(S(=O)(=O)c1ccccc1)cn2CC(=O)Nc1ccc(C)c(Cl)c1 | 0.89 | -1.6
c1csc(CNc2nnc(Cc3ccncc3)c3ccccc23)c1 | 1 | 1.5
CCOc1ccc(-c2cc(C(=O)N3CCN(Cc4ccccc4)CC3)c3ccccc3n2)cc1 | 0.95 | -2.4

Random excerpt: 3 records from the list.
SMILES | CBX7 inh | CBX7 inh z-score
Cc1ccc(-n2c3c(cc(C(=O)NC4CC(C)(C)NC(C)(C)C4)c2=O)C(=O)CC(C)(C)C3)cc1 | 1.1 | 1.2
COC(=O)c1c(NC(=O)c2cccc(Br)c2)sc(C)c1C | 1.2 | 2.3
CCOc1ccc(CNC(=O)CCCc2cn(C)c3ccccc23)cc1OC | 0.87 | -2.3

Two successive records out of the list so far:
SMILES | CBX7 inh | CBX7 inh z-score
Cc1ccc(C(=O)Nc2c(C)ccc3nsnc23)cc1 | 1.1 | 0.79
CCOC(=O)C1CCCN(c2c(NCCN3CCCC3)c(=O)c2=O)C1 (centres undefined) | 0.97 | -0.69

(continued)
SMILES | CBX7 inh | CBX7 inh z-score
CCCCNC(=O)c1ccc2c(c1)N(Cc1ccc(Cl)cc1)CCS2 | 0.98 | -0.61
CCc1ccc(NC2c3ccccc3C(=O)N2c2cc(C)ccn2)cc1 (centres undefined) | 1 | 0.23
COc1cccc(Cn2c(=O)n(CCc3ccc(OC)c(OC)c3)c(=O)c3cccnc32)c1 | 0.93 | -1.5
O=C(Nc1ccc2oc(-c3ccccc3F)nc2c1)c1ccccc1Cl | 0.98 | -0.91
CCOc1ccc(CCNC(=O)CCc2c(C)nc3c(-c4ccccc4)c(C)nn3c2C)cc1 | 1.2 | 2.4
CCOC(=O)c1cnc2ccc(OC)cc2c1Nc1ccc(OC)cc1OC | 0.89 | -2.4
CCOC(=O)C1CCN(c2c(NC(c3ccccc3)c3ccccc3)c(=O)c2=O)CC1 | 1 | 0.22
Cc1ccc(C(C(=O)NC2CCCCC2)N2CCc3ccccc32)cc1 (centres undefined) | 0.85 | -3.7
CC1CCN(c2oc(COc3ccc(F)cc3)nc2C#N)CC1 | 0.63 | -2.3
CCOc1ccc(NC(=O)c2c(NCc3cccc(F)c3)sc3c2CCC3)cc1 | 1 | 0.3
O=C(CSc1oc(-c2ccccc2)nc1S(=O)(=O)c1ccc(F)cc1)c1ccccc1 | 0.94 | -0.52
COc1ccc(C2=NN(CCC(=O)NCC(OC)OC)C(=O)CC2)cc1 | 1.1 | 1.3

Shown field by field: part of the list above
> CCc1ccc(NC2c3ccccc3C(=O)N2c2cc(C)ccn2)cc1 (centres undefined)
  CBX7 inh: 1	CBX7 inh z-score: 0.23
> O=C(Nc1ccc2oc(-c3ccccc3F)nc2c1)c1ccccc1Cl
  CBX7 inh: 0.98	CBX7 inh z-score: -0.91
> Cc1ccc(C(C(=O)NC2CCCCC2)N2CCc3ccccc32)cc1 (centres undefined)
  CBX7 inh: 0.85	CBX7 inh z-score: -3.7
> O=C(CSc1oc(-c2ccccc2)nc1S(=O)(=O)c1ccc(F)cc1)c1ccccc1
  CBX7 inh: 0.94	CBX7 inh z-score: -0.52

(more compounds)
SMILES | CBX7 inh | CBX7 inh z-score
COc1ccc(-c2nc3cnccn3c2Nc2ccc(Cl)cc2)cc1 | 1.1 | 5.6
CCc1ccc(OCC(=O)Nc2nccs2)cc1 | 1 | 1.4
Cc1ccc(-c2noc(COc3ccc(Br)cc3C)n2)cc1 | 1.3 | 2.5
c1ccc2sc(-c3ccc(NCc4ccc5c(c4)OCO5)cc3)nc2c1 | 1.7 | 17
CC1CCC(C(=O)NC(C(=O)NC2CCN(Cc3ccccc3)CC2)C(C)C)CC1 (centres undefined) | 1 | 1.2
COc1ccccc1CNC(=O)CCC(=O)Nc1ccc2nc(N3CCOCC3)cc(C)c2c1 | 1 | 0.98
C#CC(C)(C)N1CCC(O)(c2ccccc2)C(C)C1 (centres undefined) | 1.1 | 1.5
O=C(COc1ccc2ccccc2c1)Nc1ccc2nn(-c3ccccc3)nc2c1 | 0.93 | -1.1
COc1ccc2c(c1)c(CC(=O)NCCOc1ccc(Cl)cc1)c(C)n2C(=O)c1ccc(Cl)cc1 | 0.91 | -0.12
O=C(Nc1cccc(-c2cn3ccccc3n2)c1)c1ccccc1Cl | 0.83 | -1.7
COc1cccc(NC(=O)c2cnn(-c3ccc(F)cc3)c2C2CCNCC2)c1 | 1 | 0.61
Cc1cc(C)cc(NC(=O)CSc2nnc(Cc3cc(=O)[nH]c(=O)[nH]3)n2-c2cccc(C)c2)c1 | 1 | 1.5
c1csc(-c2nnc(Oc3ccc4c(c3)OCO4)c3ccccc23)c1 | 0.8 | -0.22
CCCCNC(=O)C1CC(c2ccc(OC)cc2)=NO1 (centres undefined) | 1 | 0.53
CCOc1ccc(Nc2cc(C)nc3ccc(OCC)cc23)cc1 | 1.1 | 1.1
CCOc1nc2c(c(C(F)(F)F)n1)CC(C)C/C2=C\c1ccccc1 (centres undefined) | 1.4 | 1.2
CCOC(=O)c1cccc(NC(=O)C(CC(C)C)N2C(=O)c3ccccc3C2=O)c1 (centres undefined) | 1 | 0.4
CCOCCCNC(=O)C1CC(=O)N(CCc2ccc(OC)c(OC)c2)C1 (centres undefined) | 0.98 | -0.89
COc1ccccc1CNC(=O)c1ccc2c(c1)ncn2-c1cc(C)cc(C)c1 | 0.91 | -4.1
CCn1cc(C(=O)NCCCN2CCC(C)CC2)c2cc(OC)c(OC)cc2c1=O | 0.98 | -0.61
CCCS(=O)(=O)N1CCC(C(=O)NCCc2ccc(C)cc2)CC1 | 1 | 0.48
Cc1ccc(N2C(=O)CC(N3CCN(c4ccccn4)CC3)C2=O)cc1Cl (centres undefined) | 0.78 | -0.3
CCOc1ccccc1Nc1nc(-c2ccc(C)cc2)c(CC(=O)O)s1 | 0.97 | -0.3
Cc1ccccc1Nc1c(-c2ccc(Cl)s2)nc2cnccn12 | 1 | 0.15
CCCOc1ccc(-c2cc(C(=O)Nc3ccc(OC)cc3)c3ccccc3n2)cc1 | 1.1 | 0.88
Cc1ccc2oc(-c3cccc(NC(=O)c4cccc(F)c4)c3)nc2c1 | 0.91 | -0.37
Cc1ccc(-c2nc(CS(=O)(=O)CC(=O)NCCN3CCCCC3C)c(C)o2)cc1 (centres undefined) | 0.99 | -0.012
CCOc1ccc(CCNC(=O)Cn2ncc3c2-c2ccccc2OC3)cc1OCC | 0.97 | -0.81
CCc1ccc(C(=O)CSc2nc3sc(C)c(C)c3c(=O)[nH]2)cc1 | 1 | 2
CCN(C(=O)Cn1nc(Cc2cccnc2)c2ccccc2c1=O)c1cc(C)ccc1C | 0.95 | -1.6
COC(C(=O)Nc1ccc(Cl)cn1)c1ccccc1 (centres undefined) | 0.95 | -0.74
COc1ccc2[nH]c(C)c(CCNC(=O)COc3ccc(Cl)cc3Cl)c2c1 | 0.79 | -4.6
COc1ccc(CCNC(=O)c2cnn3c(C)c(Cc4cc(C)ccc4C)c(C)nc23)cc1OC | 0.92 | -3.1
CCOC(=O)N1CCC(NC(=O)C2CCN(C(=O)c3cc4sccc4n3CC)CC2)CC1 | 1 | 0.2
COc1ccc(C2=NN(CCC(=O)NCc3ccccc3)C(=O)CC2)cc1 | 1.1 | 2
COc1ccc(Nc2cc(C(=O)N3CCCCCC3)c3ccccc3n2)c(OC)c1 | 0.83 | -2.5

In a second layout: entries from further up.
SMILES	CBX7 inh	CBX7 inh z-score
COC(C(=O)Nc1ccc(Cl)cn1)c1ccccc1 (centres undefined)	0.95	-0.74
COc1ccc(C2=NN(CCC(=O)NCc3ccccc3)C(=O)CC2)cc1	1.1	2

Continuation.
SMILES | CBX7 inh | CBX7 inh z-score
Cc1ccc(-c2ccc(=O)n(CCC(=O)NC3CCCC3)n2)cc1 | 1.2 | 0.36
CN(C)CCNc1ncnc2c1cnn2-c1ccc(Cl)cc1 | 1.3 | 0.32
O=C1CC(c2ccc3c(c2)OCO3)C2=C(CCCC2=O)N1 (centres undefined) | 0.97 | -0.36
O=C(CN1C(=O)COc2ccc(S(=O)(=O)N3CCCCCC3)cc21)NCCC1=CCCCC1 | 1 | 0.12
O=C(NCc1ccncc1)c1cc(-c2ccccc2)nc2ccc(Br)cc12 | 1.1 | 1.7
CCCN1Cc2cccc(C(=O)Nc3cccc(-c4nc5ccccc5[nH]4)c3)c2C1=O | 1 | 0.35
COc1ccc(CCNC(=O)C(C)N2C(=O)c3ccccc3C2=O)cc1OC (centres undefined) | 1 | 0.57
O=C(Nc1cccc(C(F)(F)F)c1)c1cc(-c2cccc(Cl)c2)on1 | 1.1 | 1.9
Cc1cc(OCC(=O)Nc2ccccc2)ccc1Cl | 1.1 | 5.2
COc1ccc(CCNC(=O)c2cc(C)on2)cc1OC | 1.1 | 1.4
Cc1oc(-c2cccc(Cl)c2)nc1CN1CCC(C(=O)NCc2cccnc2)CC1 | 0.98 | -0.49
COC(=O)c1cnc(N2CCC(C(N)=O)CC2)c2ccccc12 | 1 | 1
CCOC(=O)c1cnc2c(C)c(Cl)ccc2c1Nc1ccc2c(c1)OCCO2 | 0.89 | -0.25
O=C(CN1N=C(c2ccc(Cl)cc2)CCC1=O)NCc1ccc2c(c1)OCO2 | 1 | -0.077
COc1ccc(C(=O)Nc2ccc3oc(-c4ccccc4)nc3c2)cc1OC | 1 | -0.052
Cc1cc(N2CCN(C(c3ccccc3)c3ccccc3)CC2)n2nc(C)nc2n1 | 1 | 0.15
OCCn1c(-c2ccc(Br)cc2)cn2c3ccccc3nc12 | 0.76 | -5.2
COc1cccc(Nc2nc(-c3ccccc3)cs2)c1 | 1.2 | 1.2
Cc1ccc(C2(c3ccc(C)cc3)CC2C(=O)Nc2ccc(F)cc2)cc1 (centres undefined) | 0.9 | -1.4
CCN1CCN(c2cc(C)c3cc(NC(=O)CCC(=O)Nc4ccc(F)cc4)ccc3n2)CC1 | 0.99 | -0.49
Cc1ccc(-c2[nH]c(-c3ccccc3)nc2SCC(=O)NCC2CCCO2)cc1 (centres undefined) | 0.96 | -0.74
CCOc1ccc(CCNC(=O)c2cccc3c2C(=O)N(c2ccc(OC)cc2)C3)cc1 | 0.92 | -2
CCOc1ccc(C(=O)NCCc2cc3ccc(OC)cc3[nH]c2=O)cc1OCC | 0.99 | -0.27
COc1cc2c(c(OC)c1)C(c1ccccc1Br)CC(=O)N2 (centres undefined) | 1.1 | 0.12
CCOc1ccc(N2C(=O)CC(N3CCN(CCO)CC3)C2=O)cc1 (centres undefined) | 1 | 0.16
O=C(O)C1CCN(C2CC(=O)N(c3ccc(F)cc3)C2=O)CC1 (centres undefined) | 1.1 | 1
C=CCN(C(=O)Cn1c(SCc2ccc(F)cc2)nc2ccncc21)c1ccccc1 | 0.9 | -4.8
Cc1ccc(NC(=O)CSc2nnnn2-c2ccc(C(N)=O)cc2)cc1C | 1.1 | 1.2
O=C1Nc2cc(C(=O)N3CCN(c4ccccc4F)CC3)ccc2Nc2ccccc21 | 0.86 | -2.2
COc1cccc(CNC(=O)c2cnn3c(C)c4c(nc23)CCCC4)c1 | 1 | -0.033
Cc1noc(C)c1C(=O)Nc1nnc(-c2ccncc2)s1 | 1 | 0.72
CCOC(=O)c1cnc2ccc(OCC)cc2c1N1CCN(c2ccccc2)CC1 | 0.74 | -7.9
O=C1CCc2cc(S(=O)(=O)N3CCN(c4ccccc4F)CC3)ccc2N1 | 0.94 | -1.4
CC(CCc1ccccc1)NC(=O)Cn1nc(Cc2cccnc2)c2ccccc2c1=O (centres undefined) | 0.99 | -0.018
Fc1ccc(-c2csc(N3N=C(c4ccccc4)CC3c3ccccc3)n2)cc1 (centres undefined) | 1.4 | 12
Cc1cccc(OCC(=O)NC(c2ccccc2)c2c(O)ccc3ccccc23)c1 (centres undefined) | 0.89 | -1.1
O=C(Nc1ccccc1)C1CCN(S(=O)(=O)c2ccc(Cl)cc2)CC1 | 1.1 | 2.9
CCn1c(C(=O)N2CCCCCC2)cc2sc(Cl)cc21 | 0.84 | -2.7
CCOCCSc1nc2c(c(=O)[nH]1)C(C)(C1CCCCC1)Cc1ccccc1-2 (centres undefined) | 0.97 | -1.2
CC1CCN(S(=O)(=O)c2ccc3c(c2)N(CC(=O)NCCN2CCCC2)C(=O)CO3)CC1 | 0.97 | -1
CN(CCCNC(=O)c1cc(-c2cccnc2)nc2ccccc12)C1CCCCC1 | 1.2 | 2.9
O=C(Nc1ccc2snnc2c1)N1CCC(c2ccccc2)C1 (centres undefined) | 1 | 0.32
CCN(CC)C(=O)C12CC3CC(CC(C3)C1)C2 | 0.99 | -0.35
Cc1ccc(-c2nc(S(=O)(=O)c3ccc(C)cc3)c(SC(C)C)o2)cc1 | 0.98 | -0.15
Cc1cccnc1NC(=O)Nc1ccc(F)cc1 | 1 | 0.16
